A488 autofl: compound fluoresces in the A488 spectral region; 59,000 tested, 0.1% active; compound autofluorescence, A488 spectral region, dye equivalency; hits give high values; max dye equivalency, M; active = above 10 nM dye equivalent; inconclusive = 1 to 10 nM; inactive = 1 nM or less; about half of its hits are not listed in these tables;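 further: highest value over a series up to 38 µM; compound alone in buffer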
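Readout is A488 dye-equivalent concentration, calibrated by a per-plate six-point Alexa 488 series. Compounds in 100 mM Tris buffer pH 8.0 were incubated 15 min at room temperature. Plates were imaged using 480 nm excitation/540 nm emission filters.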
TSHR ag: TSH receptor (human) agonism; P16473; HEK293-CNG-TSHR cells (CNG channel as cAMP sensor), membrane potential dye, cAMP; Potency, µM (highest dose often 57.1 µM), inactives show at the top dose activation, actives largely listed as activators; 73,000 tested, 0.48% active; AID 926; active = well fitted activation curve of enough size with the parental cells flat; inconclusive = any curve in the parental cells; inactive = parental cells flat and receptor cells flat or falling; further: potency means the concentration at half of the fitted maximal effect; % of control where 0% means no effect; weak receptor curves with flat parental cells got no call and are not listed
Target sequence (P16473 whole entry, looked up): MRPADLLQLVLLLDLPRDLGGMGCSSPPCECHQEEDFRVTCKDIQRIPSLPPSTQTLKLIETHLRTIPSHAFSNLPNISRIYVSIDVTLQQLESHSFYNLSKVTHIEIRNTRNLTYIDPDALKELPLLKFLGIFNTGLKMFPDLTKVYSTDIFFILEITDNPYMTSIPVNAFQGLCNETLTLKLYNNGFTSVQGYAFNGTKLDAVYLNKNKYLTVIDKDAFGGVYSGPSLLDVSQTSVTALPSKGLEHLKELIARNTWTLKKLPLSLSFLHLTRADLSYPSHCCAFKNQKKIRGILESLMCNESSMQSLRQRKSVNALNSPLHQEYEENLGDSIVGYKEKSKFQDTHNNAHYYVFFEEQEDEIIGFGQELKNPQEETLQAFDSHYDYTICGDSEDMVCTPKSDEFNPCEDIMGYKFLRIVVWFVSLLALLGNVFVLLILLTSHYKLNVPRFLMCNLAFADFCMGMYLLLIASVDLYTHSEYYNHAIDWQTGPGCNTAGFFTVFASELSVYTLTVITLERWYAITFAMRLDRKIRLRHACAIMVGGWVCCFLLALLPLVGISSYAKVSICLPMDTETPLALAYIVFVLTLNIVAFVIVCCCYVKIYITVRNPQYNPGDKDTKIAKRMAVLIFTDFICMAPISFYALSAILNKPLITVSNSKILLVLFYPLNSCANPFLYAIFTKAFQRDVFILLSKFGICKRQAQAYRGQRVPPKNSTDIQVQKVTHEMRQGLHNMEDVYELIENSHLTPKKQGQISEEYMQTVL
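cAMP rise detected as CNG-channel membrane depolarization by fluorescent dye (emission 590 nm), 30 min after compound, following 60 min dye loading containing 100 uM RO 20-1724 at room temperature. Cells: TSHR/CNG HEK 293, with parental CNG HEK 293 as control.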
Resorufin fluor: compounds fluorescent in resorufin spectral region; Compound fluorescence, resorufin region 547/598 nm, buffer; hits give high values; max dye-equivalent concentration, M; 59,000 tested, 0.04% active; AID 588; active = above 10 nM dye equivalent; inconclusive = 1 to 10 nM; inactive = 1 nM or less; a few of its hits are not listed in these tables; further: highest value over a series up to 38 µM
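Dye-equivalent concentration values derive from comparing each well's 547/598 nm fluorescence against resorufin standards included on every plate. Incubation was 15 min at room temperature in 100 mM Tris, pH 8.0.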
A647 fluor: compound fluoresces in the A647 spectral region | Compound fluorescence, A647 channel (570/671 nm), Tris buffer | max dye-equivalent concentration, M | 59,000 tested, under 10 active; active means above 1 µM dye equivalent; inconclusive means 0.1 to 1 µM; inactive means 0.1 µM or less;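 further: values scaled relative to a standard on each plate; highest value over a series up to 38 µM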
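Fluorescence read (570 nm ex, 671 nm em) after 15 min RT incubation of compounds in 100 mM Tris buffer, pH 8.0; values expressed as dye-equivalent concentration against a six-point A647 standard series on each plate.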
AID923: qHTS Assay for Allosteric/Competitive Inhibitors of Caspase-1: Spectroscopic Profiling in AFC Spectral Region; compound fluorescence, AFC spectral region (405/520 nm); almost no hit is shown here; Potency, µM (doses to about 57.5 µM), for the others: at the highest dose fluorescence increase, actives largely listed as activators; 75,000 tested, 1.1% active; AID 923, 2007; active means well fitted activation curve with a large enough effect; inconclusive means small, poorly fitted or top-dose-only effect;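 further: potency means the concentration at half of the fitted maximal effect; 0% is about no effect; scaled to a free AFC standard on each plate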
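Compound autofluorescence profiled at 405 nm ex/520 nm em during kinetic caspase 1 run (50 nM enzyme, 5 uM Ac-WEHD-AFC, HEPES pH 7.5, 10 mM DTT). Titration up to 57 uM; baseline from regression intercept, normalized to AFC standard curve.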
Active calls of the source: *; i = inactive; ? = inconclusive; . = no result given; & = joins results of further samples; [ ] = remark or other dose.

smiles	A488 autofl	TSHR ag	Resorufin fluor	A647 fluor	AID923
CCOC(=O)C1CCCN(CC(=O)/C=C2/N(C)c3ccccc3C2(C)C)C1 (centres undefined)	i	23%	i	1.4e-09	1.1%
O=C(CSc1nnnn1-c1ccc2c(c1)CCC2)Nc1ccc2c(c1)OCCO2	i	?	i	1e-09	1.3%
NC(=O)CSCc1ccc(Br)cc1	i	1%	i	4e-08	-0.4%
CCn1c(=O)cc(SCC(=O)N2CCN(C3CCCCC3)CC2)c2ccccc21	i	?	i	1e-08	-0.7%
COc1cccc(-c2ccc3ncnc(NCc4ccccc4OC)c3c2)c1	i	?	i	2.1e-08	-3.3%
O=S(=O)(c1ccc(Br)cc1)N1CCN(c2cc(-c3ccccc3)nc3ncnn23)CC1	i	11%	i	1e-09	-2.3%
CCN=c1scc(C)n1/N=C/c1ccsc1	i	9%	i	1.2e-08	0.5%
CS(=O)(=O)N1CCC2(CC1)CN(c1ccc(-c3ccccc3)cc1)C2	i	3%	i	1.9e-09	2.5%
COc1ccccc1-n1c(C)nnc1SCC(=O)Nc1cc(C)cc(C)c1	i	1%[11.4 µM]	i	3.8e-08	0.4%
O=C(Cn1cnc2c(nnn2Cc2ccc(Cl)cc2)c1=O)NCC1CCCO1 (centres undefined)	i	?	i	1e-09	-1.6%
Cc1ccc(N2CC(C(=O)Nc3ccc4c(c3)OCO4)CC2=O)cc1 (centres undefined)	i	21%	i	7.5e-09	0.7%
CCN(CC)CC(=O)Nc1c(C)cc(C(C)(C)C)cc1C	i	.	i	4.5e-09	-0.3%
COc1ccc(-c2nnc(SCC(=O)Nc3cc(F)ccc3C)o2)cc1	.	?	.	.	-0.3%
O=C(Cc1cccs1)Nc1ccc(NC(=O)c2ccco2)cc1	i	-6%	i	2.6e-08	1.0%
CC1(C)CC(=O)c2cc(C(=O)N3CCCC(C)(C)C3)c(=O)n(-c3ccccc3)c2C1	i	.	i	2.4e-09	.
O=C(NC1CCCCC1)n1c(=O)oc2ccc(Cl)cc21	i	-3%	i	1e-08	0.8%
CN1CCN(CC(=O)N2c3ccccc3C(C)(c3ccccc3)CC2(C)C)CC1 (centres undefined)	.	16%	.	.	4.8%
O=C(CSc1cccc[n+]1[O-])c1cc2ccccc2o1	i	1%	i	4e-09	-0.8%
CCOc1ccccc1NC(=O)N1CCC(NC(=O)c2cccc(C)c2)CC1	i	16%	i	1e-09	0.9%
CC(C)c1ccc(C(=O)Nc2ccc(N3CCOCC3)cc2)cc1	.	-11%	.	.	-1.3%

Filtered by structure: those above containing a thiophene ring, fused or not.
smiles	A488 autofl	TSHR ag	Resorufin fluor	A647 fluor	AID923
CCN=c1scc(C)n1/N=C/c1ccsc1	i	9%	i	1.2e-08	0.5%
O=C(Cc1cccs1)Nc1ccc(NC(=O)c2ccco2)cc1	i	-6%	i	2.6e-08	1.0%

More results.
smiles	A488 autofl	TSHR ag	Resorufin fluor	A647 fluor	AID923
CCCCOC(OCCCC)[C@H](O)CSc1ccc2ccccc2c1	.	-3%[11.4 µM]	.	.	-0.1%[11.5 µM]
O=C(O)CCCCCNCc1ccncc1	i	12%	i	1e-09	-0.4%
CC1=C(C(N)=O)C(c2ccccn2)n2nc(SCc3ccccc3)nc2N1 (centres undefined)	i	7%[11.4 µM]	i	2.8e-08	0.1%
Cc1ccc(C(C)C)c(OCc2nnc(SCC(=O)Nc3ncc(C)s3)n2C)c1	i	3%	i	1e-09	-0.2%
CC1Cc2ccccc2N1C(=O)CSc1nnc(Cn2nnc3ccccc32)n1C (centres undefined)	i	-3%	i	1e-08	-0.7%
CC(=O)NC(CCS(C)(=O)=O)C(=O)Nc1ccc(F)cc1Cl (centres undefined)	i	-4%	i	2e-08	-0.4%
CCOc1ccccc1C(=O)Nc1nncs1	i	2%[11.4 µM]	i	1e-09	-1.0%
O=C(CSc1nc2ccccc2s1)Nn1cnnc1	i	.	i	4.1e-08	.
O=C(c1cccc(C(=O)N2CCN(c3ccc(F)cc3)CC2)c1)N1CCN(c2ccc(F)cc2)CC1	.	?	.	.	0.7%
CCCCN(C)CCNC(=O)Cn1c(=O)sc2ccccc21	.	4%	.	.	-3.0%
COc1cc2nc3c(c([Si](C)(C)C(C)(C)C)c2cc1OC)Cn1c-3cccc1=O	.	22%	.	.	-0.9%
O=C(NC1CCCCC1)N(Cc1ccc(F)cc1)Cc1nc2ccccc2c(=O)[nH]1	i	?	i	3.6e-09	-2.5%
COc1ccc2cc(S(=O)(=O)N3CCN(C)CC3)ccc2c1	i	?	i	1e-09	1.1%
CCOC(=O)c1c(C)n(C)c2ccc(OC)c(NC(=O)CN3CCC4(CC3)OCCO4)c12	i	.	i	4.4e-08	.
COc1cccc(-c2nc(-c3ccccc3)no2)c1	i	10%	i	1e-09	0.4%
O=C(NCC1CCCO1)C1CCN(S(=O)(=O)Cc2ccccc2)CC1 (centres undefined)	i	2%	i	1e-09	-1.2%
Cc1c(C(=O)O)sc2ncnc(N3CCCCC3C)c12 (centres undefined)	i	3%	i	3.4e-08	-1.5%
Cc1cc(NC(=O)CSc2ccc3nnc(-c4ccc(F)cc4)n3n2)no1	i	2%[11.4 µM]	i	1e-09	4.5%
CCOC(=O)Cn1c2c(c(=N)c3c1CCC3)CCC2	i	-2%[11.4 µM]	i	1e-09	-1.5%
COc1ccccc1Nc1nc(N)nc(CSCCO)n1	i	?	i	1e-09	0.7%

Part of the list above, field by field.
> O=C(c1cccc(C(=O)N2CCN(c3ccc(F)cc3)CC2)c1)N1CCN(c2ccc(F)cc2)CC1
  A488 autofl = .	TSHR ag = ?	Resorufin fluor = .	A647 fluor = .	AID923 = 0.7%

> CCCCN(C)CCNC(=O)Cn1c(=O)sc2ccccc21
  A488 autofl = .	TSHR ag = 4%	Resorufin fluor = .	A647 fluor = .	AID923 = -3.0%

Further entries:
smiles	A488 autofl	TSHR ag	Resorufin fluor	A647 fluor	AID923
O=C(NCCCN1CCCCCC1)[C@@H](c1ccccc1)C1CCCCC1	.	?	.	.	-2.1%
O=C(CSCc1ccc(F)cc1)NC1CCCC1	i	4%	i	1e-09	-1.9%
COc1cccc(C2=NOC(C(=O)Nc3cccc(C(C)=O)c3)C2)c1 (centres undefined)	i	4%	i	1e-09	0.2%
CCS(=O)(=O)c1nc2ccccc2n1Cc1ccccc1Cl	.	?	.	.	-0.9%
O=[N+]([O-])c1ccc(CCO)cc1	.	?	.	.	4.9%
CN(C)C(=O)c1ccc(-c2ccc3ncnc(N(C)Cc4ccco4)c3c2)cc1	i	.	i	1.1e-09	1.8%
Cc1ccc(C(CC(=O)N2CCCC2)c2ccccc2)c(O)c1C (centres undefined)	i	?	i	4.5e-08	0.5%
COc1ccccc1OCC(=O)NCCc1nc2ccccc2[nH]1	.	-3%	.	.	3.1%
CCOC(=O)c1oc2ccccc2c1NC(=O)COc1ccc(F)cc1	i	24%	i	2.1e-09	0.2%
COc1cc(NC(=O)C2CC2)c(C(=O)O)cc1OC	.	-1%	.	.	-1.5%
O=C(NCCCN1CCN(c2cccc(Cl)c2)CC1)c1cccc(N2CCCC2=O)c1	i	9%	i	8.4e-09	-3.2%
Cc1cc2c(nc1C)CCCN2C[C@H](O)CN1CCCc2nc(-c3ccc(Br)cc3)ccc21	.	-7%&-16%[11.4 µM]	.	.	-2.2%&-0.1%[11.5 µM]
O=C(Nc1ccccc1)N1CCC(c2ccccc2)C1 (centres undefined)	i	6%	i	1.4e-08	-0.1%
CC(C)CC(NC(=O)c1ccco1)C(=O)Nc1ccc2c(c1)OCCO2 (centres undefined)	.	-3%	.	.	-1.2%
COc1ccc(OC2C=CC(c3ccccc3)OC2CO)c(C(C)(C)C)c1 (centres undefined)	.	0%[11.4 µM]	.	.	-2.1%[11.5 µM]
CC1CCc2nn(CC(=O)NC3CCCC(C)C3C)cc2C1 (centres undefined)	.	23%	.	.	-0.7%
CCC(=O)Nc1ccc(NC(=O)CSc2nnc(C(C)C)n2C)cc1	i	3%	i	3.2e-08	2.7%
Cc1nnc(NC(=O)c2ccccc2F)s1	i	1%	i	1.2e-08	0.1%
CCCS(=O)(=O)N1CCCC(C(=O)NCCCOC(C)C)C1 (centres undefined)	i	8%	i	1e-09	1.3%
CCOC(=O)C1CCCN(Cc2nc(N)nc(Nc3ccc(OC)cc3)n2)C1 (centres undefined)	i	5%	i	3.5e-09	-0.6%
CC(C)Cn1cnc2c(SCc3ccc(Cl)cc3Cl)nc(N)nc21	i	5%[11.4 µM]	i	1e-09	1.1%[11.5 µM]
CCNC(=O)CSc1nc2cc(OC)c(OC)cc2c(=O)n1CCC1=CCCCC1	i	3%	i	1.4e-08	-0.2%
O=C(Nc1ccc(Br)cc1)C1CCCN1S(=O)(=O)c1cccs1 (centres undefined)	i	?	i	2.9e-08	2.1%
C/C=C/c1ccc(O)c(OC)c1	.	0%	.	.	0.9%
N#Cc1cccc(NC(=O)N2CCCC3(CCN(S(=O)(=O)c4ccccc4)CC3)C2)c1	i	0%	i	1.4e-08	1.9%
CCOc1ccc(C2CC(c3cccc(Cl)c3)n3nc(N)nc3N2)cc1 (centres undefined)	.	0%	.	.	-0.9%
CC(C)Oc1ccc(C2c3c(oc4ccccc4c3=O)C(=O)N2CCCN2CCOCC2)cc1 (centres undefined)	i	1%	i	1.4e-08	0.9%
CCOC(=O)Cn1c(=O)oc2cc(S(=O)(=O)Nc3ccc(N(CC)CC)cc3C)ccc21	.	-18%	.	.	1.1%
O=C(NCc1cccnc1)c1ccc(Cl)c(Cl)c1	i	-2%	i	1.5e-08	-0.7%
CC(=O)N1CCC2(CCCN(Cc3ccc(C#N)cc3)C2)CC1	i	4%	i	1e-09	1.7%
CCSc1nnc([C@@H]2CCCN2C(=O)OC(C)(C)C)o1	i	6%	i	1e-09	1.2%
CCCCCCN(C(=O)CCCCCN1C(=O)NC(c2ccccc2-c2ccccc2)C(C(=O)OCc2ccccc2)=C1C)C(C(=O)NCCCC)c1ccc(OCC(=O)OC)c(C(=O)OC)c1 (centres undefined)	.	?	.	.	-1.1%
C=CCSc1nnc(NC(=O)CSc2nnc(C)s2)s1	i	0%	i	1e-09	0.8%
Fc1cccc(Cl)c1-c1nnc2ccc(N3CCOCC3)nn12	i	8%	i	1.1e-09	-0.9%
O=C(NCC1CC1)C1CCCN(S(=O)(=O)c2ccc(-n3cnnn3)cc2)C1 (centres undefined)	i	-5%	i	1e-09	-0.1%
COc1cc2c(cc1OC)C1=C(C#N)CN(CC(=O)O)CN1CC2	.	12%	.	.	4.1%
CCN=C(NCC)SC1CC(=O)N(c2cccc(OC)c2)C1=O (centres undefined)	.	-9%	.	.	1.5%
O=C1CN(C(=O)CCN2CCOCC2)C(c2ccccc2)c2cc(Br)ccc2N1 (centres undefined)	.	1%	.	.	2.0%
CSc1nc2ccc(S(=O)(=O)N3CCOCC3)cc2s1	i	7%	i	5.2e-08	0.3%
Cc1ccc(-c2noc(-c3ccccc3C(=O)N3CCCC3)n2)cc1	i	25%	i	1e-09	-0.4%
O=C(COc1ccc(Br)cc1CO)Nc1ccc(F)cc1	i	-6%	i	3e-08	-0.3%
COc1ccc(CCNC(=O)C2CCN(c3nn4c(=O)cc(C)nc4s3)CC2)cc1OC	i	3%	i	1.5e-08	0.2%
CCc1nnc(NC(=O)C(C)N2C(=O)C3C4C=CC(C4)C3C2=O)s1 (centres undefined)	i	11%	i	9.6e-09	-0.5%

These rows are one share of the data. The share of hits here may be higher or lower than overall.
